Screens from PubChem BioAssay.
Calb biofilm kill = mixtures killing C. albicans biofilm | C. albicans biofilm persisters + clotrimazole, fluorescence viability; primary screen in compound mixtures of four per well | inhibition, % at 7.6 µM | hit rate 0.02% among 120,000 | AID 1242;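 active means inhibition above 30.3% in the primary screen of four-compound pools, then above 30% when the compound was retested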;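 further: compounds exposed to preformed 24 h biofilms for 48 h; the number belongs to the whole pool; some results filed as inactive read as strong as hits; inactives centre near 12; 0% = biofilm with clotrimazole alone and 100% = kill control; retested singly at about 60 µM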
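Assay system: C. albicans biofilms / Medium: RPMI/MOPS medium, pH 7.0 / Schedule: biofilm formation 24 h, compound exposure 48 h, 37 °C / Measured by: Alamar Blue fluorescence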
Active calls of the source: *.

SMILES	Calb biofilm kill
COc1cc(/C=C(\C#N)c2nc3ccccc3[nH]2)cc(OC)c1O	21
Cc1ccc2nc(SCC(=O)Nc3ccc(F)c([N+](=O)[O-])c3)[nH]c2c1	13
NNC(=O)c1ccc(COc2cccc3cccnc23)cc1	-1
COc1ccc(S(=O)(=O)Nc2ccc(O)c(Sc3ncn[nH]3)c2)cc1	9
C/C(=N/OC(=O)C1CC12CCC2)c1ccc(Br)cc1 (centres undefined)	18
CC(NC(=O)c1cn(C(C)c2ccccc2F)nn1)c1ccncc1 (centres undefined)	12
COc1ccc2cc(C#N)c(Cl)nc2c1	12
CC1=C(C(=O)OC(C)C)C(c2ccc(C)o2)C(C(=O)OC(C)C)=C(C)N1	15
CCC(=O)NC(c1cccs1)c1ccc2cccnc2c1O (centres undefined)	12
Cc1ccc(C2C3C(=O)N(c4ccccc4)C(=O)C3N3CCCN23)cc1 (centres undefined)	12
CCC1=NN(C(=O)Cc2ccc([N+](=O)[O-])cc2)C(O)(c2ccncc2)C1 (centres undefined)	16
Cc1cccc2c(=O)c(Br)c(C)n(Cc3ccccc3)c12	2
N#Cc1ccc(N2CCc3ccccc3C2)c([N+](=O)[O-])c1	11
CS(=O)(=O)Nc1ccc2[nH]c(=O)[nH]c2c1	-2
O=C(O)c1ccc(-c2nnn(Cc3cccc(C(F)(F)F)c3)n2)cc1	28
CCOC(=O)C(C(=O)c1ccccc1)C1CC(C)NC(=S)N1 (centres undefined)	-17
CN(C)c1ccc(/C=C/C(=O)c2ccc(O)cc2)cc1[N+](=O)[O-]	23
O=C(/C=C/c1ccc([N+](=O)[O-])cc1)NCCSCc1ccco1	15
COc1ccc(-c2nc3nc(N)nn3cc2C)cc1F	-7
COc1cc(/C=C2/C(C)=C(C#N)c3nc(N)c(C#N)c(C)c32)ccc1OCC(=O)O	15
Cc1nc(SCC(=O)c2ccc(F)c(F)c2)[nH]c(=O)c1Oc1ccc(Cl)cc1	19
O=C(Nc1ccc(OCc2ccccc2)cc1)c1ccccc1	2
Cc1cccc(NC(=S)NCc2ccc3c(c2)cc(C)n3C)c1C	-1
CCOC(=O)/C(C#N)=C1\C(=O)N(Cc2ccccc2)c2ccccc21	15
Cc1ccc(NC(=O)COC(=O)CCNS(=O)(=O)c2ccc(C)c(C)c2)cc1	-1
CCC(C)(C)NC(=O)C(c1ccc(F)cc1)N(Cc1ccccc1)C(=O)c1cnccn1 (centres undefined)	4
CCCN1CNc2c(c(=O)[nH]c(=S)n2-c2ccccc2Cl)C1	18
COc1ccc(CC(=O)Nc2cc(NC(=O)Cc3ccc(OC)c(OC)c3)cc(C(=O)O)c2)cc1OC	-7
O=C(NNC(=S)Nc1ccc(Cl)cc1Cl)c1ccc(N2CCOCC2)c([N+](=O)[O-])c1	15
CS(=O)(=O)N1CCN(C(=S)NCc2ccc(Cl)cc2)CC1	7
Cc1cccn2cc(-c3cccc(NC(=O)c4cccs4)c3)nc12	13
CCC(=O)N(CC(=O)Nc1sc(C)c(C)c1C(N)=O)C1CCCC1	11
O=C(CSc1ccccn1)N/N=C/c1c[nH]c2ccccc12	8
CCOc1ccc(C(=O)NCC(=O)N2CCc3ccccc3C2)cc1OCC	6
CCCC[C@@H]1CNC(=S)N1CCc1cccc(F)c1	19
COC(=O)[C@H](CC(C)C)NC(=O)Nc1ccccc1F	27

A second format for part of the listing above.
> CCCN1CNc2c(c(=O)[nH]c(=S)n2-c2ccccc2Cl)C1
  Calb biofilm kill: 18

> COc1ccc(CC(=O)Nc2cc(NC(=O)Cc3ccc(OC)c(OC)c3)cc(C(=O)O)c2)cc1OC
  Calb biofilm kill: -7

The results go on:
SMILES	Calb biofilm kill
C/C=C/C=C\C(=O)Nc1cccc(C2=NOC3(C2)C[C@H](C(N)=O)N(C(=O)CC#N)C3)c1 (some centres undefined)	16
Cc1ccc(-n2cccn2)cc1	10
CCCCn1c(N)c(C(=S)NC(=O)CC(C)(C)C)c(=O)n(C)c1=O	19
COc1ccc(/C=C(\NC(=O)c2ccc(C)cc2)C(=O)Nc2c(C)n(C)n(-c3ccccc3)c2=O)cc1	12
CC(=O)N1CCN(S(=O)(=O)c2cccc(C(=O)Nc3ccc4c(c3)CCC4)c2)CC1	14
CC1=C(O)C(=O)OC1c1c(Cl)cccc1Cl (centres undefined)	20
O=C(NC(=S)Nc1ccc(N2CCOCC2)cc1)c1ccc(Cl)cc1	6
CC1=NN(c2ccccc2)C(=O)/C1=C/c1cn(C)c2ccccc12	16
COc1ccc(C(C)NC(=O)c2ccc(Br)cc2)cc1OC (centres undefined)	16
CC[C@H](C)C1NC(=O)[C@H](CC(=O)O)NC(=O)c2cc([N+](=O)[O-])cc(I)c2NCCC(C(N)=O)NC1=O (some centres undefined)	18
N/C(Cc1ccc(Cl)cc1Cl)=N\OC(=O)c1ccccc1	0
C=CCn1c(=O)n(C(=O)OCC)c2cc(Br)ccc21	17

Among those listed so far, 15 have four or more nitrogen atoms.
SMILES	Calb biofilm kill
Cc1ccc2nc(SCC(=O)Nc3ccc(F)c([N+](=O)[O-])c3)[nH]c2c1	13
COc1ccc(S(=O)(=O)Nc2ccc(O)c(Sc3ncn[nH]3)c2)cc1	9
CC(NC(=O)c1cn(C(C)c2ccccc2F)nn1)c1ccncc1 (centres undefined)	12
CCC1=NN(C(=O)Cc2ccc([N+](=O)[O-])cc2)C(O)(c2ccncc2)C1 (centres undefined)	16
O=C(O)c1ccc(-c2nnn(Cc3cccc(C(F)(F)F)c3)n2)cc1	28
COc1ccc(-c2nc3nc(N)nn3cc2C)cc1F	-7
COc1cc(/C=C2/C(C)=C(C#N)c3nc(N)c(C#N)c(C)c32)ccc1OCC(=O)O	15
CCC(C)(C)NC(=O)C(c1ccc(F)cc1)N(Cc1ccccc1)C(=O)c1cnccn1 (centres undefined)	4
CCCN1CNc2c(c(=O)[nH]c(=S)n2-c2ccccc2Cl)C1	18
O=C(NNC(=S)Nc1ccc(Cl)cc1Cl)c1ccc(N2CCOCC2)c([N+](=O)[O-])c1	15
O=C(CSc1ccccn1)N/N=C/c1c[nH]c2ccccc12	8
C/C=C/C=C\C(=O)Nc1cccc(C2=NOC3(C2)C[C@H](C(N)=O)N(C(=O)CC#N)C3)c1 (some centres undefined)	16
CCCCn1c(N)c(C(=S)NC(=O)CC(C)(C)C)c(=O)n(C)c1=O	19
COc1ccc(/C=C(\NC(=O)c2ccc(C)cc2)C(=O)Nc2c(C)n(C)n(-c3ccccc3)c2=O)cc1	12
CC[C@H](C)C1NC(=O)[C@H](CC(=O)O)NC(=O)c2cc([N+](=O)[O-])cc(I)c2NCCC(C(N)=O)NC1=O (some centres undefined)	18

The list goes on:
SMILES	Calb biofilm kill
CCOc1ccc(C(=O)Nc2cccc(C(=O)O)c2C)cc1Cl	11
CCOC(=O)c1ccccc1NS(=O)(=O)c1ccc(OC)cc1	18
O=C1CC(c2ccco2)=Nc2ccccc2N1	13
O=S(=O)(Nc1nc2ccccc2nc1Cl)c1ccc2c(c1)OCCO2	15
CCCN1C2CCCC1CC(NC(=S)Nc1ccc(OC)cc1)C2 (centres undefined)	23
COC(=O)c1ccc(NC(=O)CNc2ccccc2)cc1	-3
O=C1Nc2ccccc2C1Cc1ccccc1 (centres undefined)	9
COc1cc2cccc(OC)c(=O)c2c(OC)c1OC	27
COc1ccc(CS(=O)c2nc(C)cc(C)c2S(C)(=O)=O)cc1 (centres undefined)	10
CCOC(=O)c1ccc(CNC(=O)Cn2nnc(-c3ccccc3)n2)o1	22
CC(C)N1CCC(N2CCN(CCCn3cccn3)CC2CCO)CC1 (centres undefined)	28
CCC(=O)Oc1ccc2c(C)cc(=O)oc2c1C(=O)CC	5
O=C(NNC(=O)c1c(F)cccc1F)c1ccccc1OC(F)(F)F	10
Cc1ccc(N2C(=O)C3C4C=CC(CNC(=S)N5CCN(c6ccccc6)CC5)(O4)C3C2=O)cc1 (centres undefined)	9
CC(=O)N[C@@H](Cc1ccc(OC(F)(F)F)cc1)C(=O)O	7
CC(NC(=S)NCc1ccc(F)cc1)C12CC3CC(CC(C3)C1)C2 (centres undefined)	9
Cc1c(C)c(C)c(S(=O)(=O)n2[nH]c(=O)c(CCO)c2C)c(C)c1C	11
O=C(Cc1cccs1)NNC(=O)c1ccc(F)cc1	11
Cc1ccc(C(=O)OCC(=O)NCCC2=CCCCC2)cc1N	9
Clc1ccc(N=C2SCCS2)cc1	0
O=C(NCCC1=CCCCC1)C1CCC(CNc2c(N3CCCCC3)c(=O)c2=O)CC1 (centres undefined)	13
CC1/C(=N/O)CC(c2ccco2)NC1c1ccco1 (centres undefined)	7
O=C(Cc1ccc(F)cc1)Nc1nnc(SCC(=O)NC2CCCC2)s1	11
COC(=O)C1CCN(C(=O)COC(=O)[C@@H]2CC(O)CN2S(=O)(=O)c2ccc3c(c2)OCCO3)CC1 (some centres undefined)	13
COc1ccccc1-c1nnc(SC(C(=O)c2c[nH]c3ccccc23)c2ccccc2)n1C (centres undefined)	25
CC(C)[C@H](NC(=O)c1ccco1)C(=O)NC12CC3CC(CC(C3)C1)C2	24
Cc1c(Cl)cccc1NC(=O)CCC(=O)NNC(=O)CCC(=O)O	17
CCOCCN1CCN(c2c(CC)c(C)nc3cc(-c4cc(OC)cc(OC)c4)nn23)CC1	7
Cn1c(SCC(N)=O)nnc1-c1ccc(C(C)(C)C)cc1	10
O=[N+]([O-])c1ccc(N/N=C/c2ccccc2)c(F)c1	5
CCSc1nc2sc3c(c2c(=O)[nH]1)CCc1ccccc1-3	24
COc1ccc(N(CC(O)Cn2c(C)nc3ccccc32)S(=O)(=O)c2ccccc2)cc1 (centres undefined)	6
Cc1ccc(-c2c(C(=O)NC(C)C)oc(=O)c3ccccc23)cc1	10
COc1ccc(C(=O)c2cc(C(C)=O)c(Nc3ccccc3)s2)cc1	12
O=C(/C=C/Nc1ccccc1O)c1ccco1	19
Cc1ccc(-c2cc(C(=O)N3CCc4ccccc4C3)no2)cc1	21
Cc1ccc(S(=O)(=O)N2CCOCC2)cc1NC(=O)CN1CCC(Cc2ccccc2)CC1	14
Cc1ccc(C(=O)NCC(=O)NCC(=O)OCC(=O)c2cccs2)cc1	11
CNS(=O)(=O)c1cccc(C(=O)OCC(=O)Nc2ccc(Cl)cn2)c1	14
Cc1ccc(-c2cc(C(F)(F)F)n3ncc(C(=O)O)c3n2)cc1	13
COc1ccc(N(C(=O)c2ccco2)C(C(=O)NC2CCCCC2)c2ccccc2)cc1 (centres undefined)	5
NNC(=O)/C(=C\c1ccc(Br)cc1)NC(=O)c1cccs1	14
Cc1ccc2cccc(OCc3nnc(SCC(=O)O)n3C)c2n1	8
O=C(NCCSCc1ccccc1)c1ccccc1	12
Cc1ccc2cccc(OC(=O)/C=C\c3ccccc3)c2n1	13
CCc1cccc(CC)c1NC(=O)c1cc(CN2C(=O)c3ccccc3C2=O)ccc1OC	5
CCCCSCc1cc(C(=O)O)oc1C(C)(C)C	7
CCN(Cc1ccncc1)C(=S)Nc1ccccc1	11
COc1ccccc1OCCC(=O)OCC(=O)c1[nH]c(C)c(C(C)=O)c1C	11
CCOC(=O)CON1C(=O)C(=O)N(OCC(=O)OCC)C2CCCCC21 (centres undefined)	23
Cc1nc2sc(C(=O)c3ccccc3)c(N)c2c(C)c1C	15
CCOc1cc(/C=C/C(=O)Nc2ccc(C(=O)NCCN(CC)CC)cc2)ccc1OCC(C)C	14
CCOC(=O)c1cnc(SCC(=O)c2ccc(C)cc2)nc1N	10
COC(=O)CCC(=O)Oc1ccc(OC(=O)CCC(=O)OC)cc1	21
CCOc1ccccc1NC(=O)CN(C)S(=O)(=O)c1cnc[nH]1	7
Cc1cc(C)c2nc(NNC(=O)c3ccc(S(=O)(=O)N4CCCC(C)C4)cc3)sc2c1 (centres undefined)	12
O=C(N=C1N=C2C=CC=CN2Cc2ccccc21)c1ccc(S(=O)(=O)N2CCOCC2)cc1	-6
O=C(COC(=O)Cc1ccc(Cl)cc1Cl)NCCC1=CCCCC1	-2
CC/C(C)=N/Nc1cccc([N+](=O)[O-])c1	18
O=C(Nc1cccc(C(F)(F)F)c1)C(Sc1cccc[n+]1[O-])c1ccccc1 (centres undefined)	11
The list continues.
SMILES	Calb biofilm kill
C=CCN(CC=C)C(=O)CCc1nnc(CCc2c[nH]c3ccccc23)o1	-2
CCOc1ccccc1CNCCO	7
O=C(Cc1c(F)cccc1Cl)Nc1ccc(-n2cnnn2)cc1	0
COC(=O)c1cc2sccc2n1CC(=O)N(C)c1ccccc1	-4
CCOC(=O)C(C(=O)NCC1CCCO1)C1CCCCC1 (centres undefined)	6
Cc1cccc(CC2S/C(=N/c3cccc(C)n3)NC2=O)c1 (centres undefined)	25
O=[N+]([O-])c1cccc(S(=O)(=O)NCC2CCCO2)c1 (centres undefined)	10
O=C(/C=C/c1ccco1)Nc1ccc(N2CCCC2)cc1	1
CCOC(=O)C1=C(C)N(c2ccc(Cl)cc2)C(=O)NC1c1cccc([N+](=O)[O-])c1 (centres undefined)	11
N#CC(=C=[N-])c1nc2ccccc2nc1-[n+]1cccc(NC(=O)c2ccc(F)cc2)c1	18
CCC(C)N=CC1=C(O)C(C(=O)OC)C(C)(C)CC1=O (centres undefined)	3
O=C(CSc1nc2ccccc2c(=O)[nH]1)Nc1ccccc1N1CCOCC1	22
CCC(=O)N1CCN(c2cc(NCC3CCCO3)c(F)cc2[N+](=O)[O-])CC1 (centres undefined)	-10
Cc1ccc(S(=O)(=O)N2CCOCC2)cc1C(=O)NCc1cccs1	12
CCCC(C)NC(=O)COc1ccc(S(=O)(=O)c2ccc(OCC(=O)NC(C)CCC)cc2)cc1 (centres undefined)	9
Cc1ccccc1C(=O)Oc1ccc(-c2csnn2)cc1	11
Cc1ccc(Cl)cc1N1CCN(CC(O)COC(C)C)CC1 (centres undefined)	6

A portion of the library, so the mix of outcomes need not match the whole.
